B2AR ag = beta2AR agonists driving receptor internalization, primary screen, cell-based, FAP fluorogen, flow cytometry | Am2.2-beta2AR cells; reference of the scale not given here | response, % (concentration not given with the values) | 0.43% of 340,000 active | AID 504454, 2011;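 active = response above a set limit, near 3 SD of response in nonfluorescent compounds, cut at about 42% in these data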;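 also: stock transfer was 100 nL into about 11 µL; a reference agonist was the positive control; negative values mostly stem from fluorescent compounds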
Calb FLC = C. albicans growth inhibition with fluconazole, primary screen, CaCi-2 strain, Alamar Blue fluorescence | C. albicans CaCi-2 (fluconazole-resistant clinical isolate) + fluconazole, 48 h | growth inhibition, % (test concentration not listed) | 0.57% of 300,000 active | AID 1979, 2009;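 active = most replicates above 75%; inconclusive = exactly half above 75%; inactive = most below 75%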;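 also: all wells also contain fluconazole at 8 µg/ml as a sub-toxic cotreatment; 0% = median of DMSO wells and 100% = median of geldanamycin control wells; wells of about 8 µL received 7.5 nL stock; the first replicate is given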
LANA-H2B inh = blockers of LANA interaction with H2A/H2B – biochemical, FP readout, HTS, primary screen | Protein LANA1 (Human herpesvirus 8 type P (isolate GK18)), Q9QR71 | inhibition, % (test concentration not listed) | cell-free LANA-H2A/H2B peptide, fluorescence polarization | 0.6% of 320,000 active; in the data active = inhibition mostly above about 10%, no sharp cut-off; inactive = mostly below about 6.7%;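 also: stock transfer was 7.5 nL into about 10 µL; 0% = median of vehicle wells and 100% = median of positive control wells; one replicate is shown; the record names a cut of 25% in any replicate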
RanGTP-Imp inh = inhibitors of RanGTP-importin-beta interaction, primary screen, biochemical, FRET, CFP-Ran, YFP-importin-beta, homogeneous; Ran GTPase (GTP-bound) - importin-beta complex; cell-free CFP-Ran/YFP-importin-beta FRET ratio; inhibition, % (concentration not given with the values); 1.1% of 300,000 active;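 active = most replicates above 15%; inconclusive = exactly half above 15%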;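 also: 0% = DMSO wells and 100% = Ran loaded with GDP instead of GTP; wells of about 40 µL received 100 nL stock; the first replicate is given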
HNF4A DNA FP = change in binding of human HNF4A to DNA, primary screen, biochemical, fluorescence polarization, FITC-DNA; AID 1224865, 2016; activity change, % at 10 µM; 0.3% of 360,000 active; 1 h; in the data active = activity change above about 30%, passing the limit was not always enough;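 also: controls were the assay level and a saturating level of protein; the project sought stronger binding though the title names inhibitors; some compounds called inactive have numbers as strong as hits; positive values seem to mean higher polarization but the record does not say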
Target sequence (P41235 whole entry, looked up): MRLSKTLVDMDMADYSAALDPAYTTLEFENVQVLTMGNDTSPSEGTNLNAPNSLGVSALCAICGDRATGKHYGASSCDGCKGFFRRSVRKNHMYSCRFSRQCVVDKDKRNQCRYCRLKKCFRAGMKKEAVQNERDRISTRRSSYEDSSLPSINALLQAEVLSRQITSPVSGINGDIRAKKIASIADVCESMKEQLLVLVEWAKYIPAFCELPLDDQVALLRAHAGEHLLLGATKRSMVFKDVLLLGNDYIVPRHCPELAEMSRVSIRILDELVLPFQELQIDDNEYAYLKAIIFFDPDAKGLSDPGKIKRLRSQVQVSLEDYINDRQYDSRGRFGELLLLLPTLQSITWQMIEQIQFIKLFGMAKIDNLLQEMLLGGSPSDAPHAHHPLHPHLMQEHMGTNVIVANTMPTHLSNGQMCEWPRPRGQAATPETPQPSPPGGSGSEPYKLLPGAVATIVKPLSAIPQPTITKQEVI
Vif A3G = inhibitors of Vif binding to APOBEC3G peptide, primary screen, biochemical, TR-FRET, GST-Vif 1-94, biotin-A3G peptide, dose response retest (AID 1117319). Virion infectivity factor (Human immunodeficiency virus type 1 group M subtype B (isolate …. TR-FRET GST-Vif / biotin-A3G peptide binding; higher % means a stronger effect; test concentration not given here; strong numbers were not always called active. inhibition, %, or IC50 in µM where a hit was titrated. 0.57% of 260,000 active;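 active = above the screen mean plus three standard deviations and confirmed in dose response; inconclusive = results disagree or hit not tested in dose response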;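 also: Vif residues 1-94 fused to GST binding biotinylated APOBEC3G peptide 110-148; 0% = full assay without inhibitor and 100% = GST in place of GST-Vif; retest series ran down from 100 µM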
ALR H2O2 inh = inhibitors of human ALR sulfhydryl oxidase, primary screen, biochemical, H2O2 detection, HRP-luminol luminescence, single point; purified ALR, DTT oxidation; inhibition, % (no concentration beside the values); 3.8% of 290,000 active; AID 485317, 2010;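 active = mean and each replicate at 75% or more; inconclusive = only one of the two met; inactive = neither met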;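 also: stock transfer was 7.5 nL into about 7.5 µL; 0% = neutral wells and 100% = wells with inactivated enzyme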
Target sequence (P55789 whole entry, looked up): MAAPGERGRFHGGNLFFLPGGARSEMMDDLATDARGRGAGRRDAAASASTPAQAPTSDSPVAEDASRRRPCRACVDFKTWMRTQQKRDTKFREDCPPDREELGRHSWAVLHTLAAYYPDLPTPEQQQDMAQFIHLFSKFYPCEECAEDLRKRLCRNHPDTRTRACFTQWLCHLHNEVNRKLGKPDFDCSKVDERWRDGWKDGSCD
* hit, by the source's call; ? = inconclusive; nt = no result given. Hits appear at their usual frequency. About 6.3% of those tested had a hit in this group.

mol	B2AR ag	Calb FLC	LANA-H2B inh	RanGTP-Imp inh	HNF4A DNA FP	Vif A3G	ALR H2O2 inh
CCC(C)NC(=O)C(Sc1ccccc1)c1ccccc1 (configuration not stated)	4	-2	-4.0	2.1	4.2	-5%	-11
CC1(C)Cc2cccc(C(=O)NC3CCN(Cc4ccccc4)CC3)c2O1	1	-16	-2.5	2.0	8.8	-3%	-2
COCCCn1c(SCc2nnc(-c3ccc(OC)c(OC)c3)o2)nnc1-c1ccncc1	-2	-2	1.9	-2.7	-3.4	20%	-3
Brc1ccccc1-c1nnc(COc2ncnc3ccccc23)o1	-11	3	-0.3	0.9	8.2	-2%	-4
Cc1ccc(CNC(=O)/C(C#N)=C/c2ccc(C)s2)cc1	2	-33	-1.5	-2.8	-1.1	22%	-4
O=C(CSc1nnc(NC(=O)c2c(F)cccc2F)s1)NC1CCCCC1	-4	0	-0.2	2.3	0.5	3%	1
COc1ccc(CNC(=O)[C@H](C)NC(=O)C2CCN(S(=O)(=O)c3ccccc3)CC2)cc1	-9	-2	6.3	-0.9	1.0	-5%	-1
CCOc1ccccc1N(C(=O)Nc1ccc(Cl)cc1)C1=NC(C)CS1 (configuration not stated)	2	-19	0.1	?	4.8	nt	-13
COc1ccc(OC)c(S(=O)(=O)NCCc2ccccc2)c1	0	3	-9.1	0.1	-1.4	27%	-1
O=C(Cn1nc(C(F)F)cc1C(F)F)NNC(=S)Nc1ccc(F)cc1	5	4	5.8	6.8	-0.4	22%	29
O=C(CSc1nc2ccccc2o1)Nc1nc2ccccc2s1	-3	-11	1.8	-0.4	3.3	-21%	-11
CCCCN(CC)C(=O)Cc1ccccc1OC	2	-8	0.7	-2.5	-2.8	-2%	-4
O=C(NCC1CCCO1)/C(=C/c1ccc(Cl)cc1)NC(=O)c1ccccc1 (configuration not stated)	-7	-4	1.8	0.7	7.3	nt	16
CCCCCCCc1nn2c(=O)cc(O)nc2s1	-11	-2	2.5	1.3	4.1	13%	-5
O=c1oc2ccccc2c(N2CCCCC2)c1CN1CCCC1	-7	19	0.8	-4.3	-2.5	-4%	nt
O=C(NCc1cccnc1)Nc1ccccc1	2	-16	-5.4	-5.3	-3.5	14%	-6
CC(C)(C)OC(=O)NCc1ccc(CNC(=O)c2[nH]cnc2C(=O)N[C@@H](Cc2ccccc2)C(=O)OC(C)(C)C)cc1	3	21	1.5	-1.5	-0.9	nt	-4
Cc1ccc2nc(NC(=O)c3ccc(N4C(=O)CCC4=O)cc3)sc2c1	8	19	-0.2	3.7	7.2	7%	-3
Cc1ccc(-c2ccc(=O)n(CC(=O)NCCCN3CCCCC3)n2)cc1	2	6	3.0	-0.9	2.6	-2%	-13
CC(=O)N1CCC(C(=O)Nc2cc(C)cc(C)c2)CC1	-5	0	-0.1	-6.6	5.0	-6%	-2
CC(=O)Nc1ccc(-c2nnn(CC(=O)Nc3ccc4c(c3)OCO4)n2)cc1Cl	7	?	4.3	2.1	-1.2	-5%	1
CCN(CC)CCNCc1cc(Br)ccc1OCC(=O)NCc1ccccc1	-1	-16	-4.9	1.0	-0.5	-6%	6
CCc1ccc(NC(=O)Cn2nnc(-c3ccc(C)cc3-n3cnnn3)n2)cc1	4	-7	0.3	3.0	2.4	3%	-3
O=C(O)c1ccc(NC2(C(=O)O)CCCC2)cc1	-4	nt	nt	nt	2.8	0%	nt
CCC(CC)C1C(C#N)=C(N)Oc2n[nH]c(-c3ccccc3)c21 (configuration not stated)	-2	4	3.7	1.3	-0.9	1%	1
O=C(NCC1CCCO1)c1cc2ccccc2[nH]1 (configuration not stated)	4	-20	2.4	-1.9	1.1	16%	-17
COc1ccc(Br)cc1S(=O)(=O)Nc1ccc(Cl)cn1	5	11	-3.6	0.5	-0.7	nt	-4
C[C@H](CO)N1C[C@H](C)[C@@H](CN(C)Cc2ccc(Oc3ccccc3)cc2)Oc2ccc(NC(=O)Cn3cnnn3)cc2C1=O	-8	nt	4.2	nt	0.0	nt	-7
CCOC(=O)COc1cc2c(C(=O)OCC)c(C)oc2cc1Br	9	12	-1.5	3.6	6.0	2%	97*
O=C(NCc1ccco1)C(=O)NCC1OCCN1S(=O)(=O)c1ccc(Br)cc1 (configuration not stated)	0	9	-3.4	?	1.3	12%	-4
CC1CCCC(C)N1C(=O)COC(=O)CSc1ccc(C(N)=O)cc1[N+](=O)[O-] (configuration not stated)	3	-1	-1.8	-2.1	4.3	2%	3
CCOC(=O)N1CCN(CC(=O)Nc2ccc(F)c(F)c2)CC1	3	?	-3.1	-4.4	1.6	-9%	18
CCC(NC(=O)CCc1ccccc1)c1ccccc1 (configuration not stated)	-8	-2	-12	0.9	-1.6	7%	-1
COc1cccc(C(=O)Nc2ccccc2C(=O)NCC2CCCO2)c1 (configuration not stated)	-8	nt	0.8	nt	1.3	nt	2
O=C(Nc1cc(S(=O)(=O)N2CCOCC2)ccc1N1CCOCC1)c1cccc(S(=O)(=O)N2CCCCC2)c1	15	-3	-5.6	0.8	5.8	nt	0
Cc1ccc(-c2nc3ccccc3s2)cc1NC(=S)NC(=O)/C=C/c1ccco1	-7	36	-2.0	0.6	2.0	24%	4
C=CCCN([C@H](CO)Cc1ccccc1)S(=O)(=O)c1ccccc1Br	9	nt	nt	nt	-0.7	-3%	nt
CCOC(=O)c1[nH]c2ccccc2c1NC(=S)Nc1ccccc1C	-2	-9	-6.7	-2.6	0.6	-8%	nt
Cc1ccc(NC(=S)N2CCn3cccc3C2c2cccnc2)cc1 (configuration not stated)	0	5	4.3	4.9	-0.3	nt	nt
Cn1nc(C(=O)NCc2ccccc2)cc1C(=O)NCc1ccccc1	-6	-2	-9.4	-1.2	-0.5	nt	-32
COc1cccc(-n2c(SCC(=O)NC(C)(C)C)nnc2-c2ccoc2C)c1	-8	-7	-1.8	-0.6	0.7	11%	8
O=C(O)c1ccccc1CSc1nc2ccccc2o1	0	-3	-0.5	-1.0	2.0	-2%	36
FC(F)C(F)(F)c1cc(-c2ccc(Cl)cc2)n[nH]1	0	-50	-10.0	-1.5	1.7	21%	-6
Cc1ccc(C(=O)c2cncc(Br)c2)cc1	-5	-9	-1.7	1.1	-2.2	21%	nt
CC(=O)c1cccc(NC(=O)COC(=O)c2ccccc2C)c1	1	1	-0.6	1.8	4.4	nt	-1
CCSc1nc2sccc2c(=O)n1-c1ccccc1	-2	-3	0.5	0.0	4.2	nt	-1
CCc1ccccc1NC(=O)c1sc2nc(C)cc(C)c2c1N	-9	-2	1.7	-4.6	2.4	nt	nt
COC(=O)C1=C(C)OC(N)=C(C#N)C1c1c(C)nn(C)c1C (configuration not stated)	-3	2	1.6	-2.9	0.9	1%	-2
CC(C)Oc1ccc(C(CC(=O)O)NC(=O)c2cccs2)cc1 (configuration not stated)	9	-6	-7.2	-6.4	1.0	8%	-2
O=C(NCC1COCCO1)C1CCN(S(=O)(=O)c2ccccc2)CC1 (configuration not stated)	-4	-9	-6.8	-2.6	-2.7	-1%	-1

Next section:
mol	B2AR ag	Calb FLC	LANA-H2B inh	RanGTP-Imp inh	HNF4A DNA FP	Vif A3G	ALR H2O2 inh
COc1ccc(CC(=O)OCn2nnc3ccccc3c2=O)cc1OC	-3	-6	11	3.6	-6.3	0%	-22
Cc1cccc(C2c3[nH]c4ccccc4c3CCN2C(=O)c2cn(C)c3ccccc3c2=O)n1 (configuration not stated)	2	33	-0.5	4.3	1.6	nt	-1
COc1ccc(NC(=O)c2ccco2)cc1NC(=O)c1ccc(C)cc1	-23	11	3.1	-1.9	0.9	2%	-7
CCOC(=O)CN1C(=O)S/C(=C/c2ccc(O)c([N+](=O)[O-])c2)C1=O	1	19	0.2	-0.9	-1.0	23%	2
CC(=O)Nc1ccc(S(=O)(=O)Nc2c(NC3CCCCC3)c3ccccc3oc2=O)cc1	9	-2	1.9	0.1	4.9	nt	-4
Cc1ccc(NC(=O)OCc2ccccc2S(C)=O)cc1 (configuration not stated)	2	-21	1.5	3.2	5.3	0%	-15
CS(=O)(=O)c1nc([N+](=O)[O-])nn1CCCc1ccccc1	6	-1	8.3	0.7	1.4	nt	10
CCN(CC)Cc1c[nH]c2c(C(=O)OC)cccc12	3	-2	3.6	4.4	0.2	24%	nt
Cc1ccc(S(=O)(=O)N2C(=S)SCC2(C)C)cc1	nt	5	nt	3.0	nt	-2%	nt
CN(Cc1ccccc1)C(=O)c1cccc(NC(=O)Cc2ccc(NC(=O)C3CCN(C(=O)c4ccccc4)CC3)cc2)c1	-12	nt	nt	nt	0.7	3%	nt
COc1cc(/C=C/C(=O)OCC(=O)Nc2ccc(NC(C)=O)cc2)cc(S(=O)(=O)N2CCc3ccccc32)c1OC	-1	2	0.6	4.3	4.5	4%	-6
O=C(CNC(=O)c1ccc(Br)cc1)N/N=C/c1ccc[nH]1	-4	-1	-0.3	1.9	-2.3	-8%	-30
COc1ccc(S(=O)(=O)NNC(=O)C2COc3ccccc3O2)cc1[N+](=O)[O-] (configuration not stated)	-1	nt	0.1	1.6	4.1	0%	-1
CC(C)N(Cc1nnc(-c2ccccc2Br)o1)C(=O)c1cc(Cl)nc2ccccc12	12	nt	0.8	nt	3.7	5%	nt
O=C(COc1ccc(Cl)cc1)c1ccc(O)cc1O	0	-5	-3.4	6.1	2.1	nt	nt
CCC(Sc1nc(C)cc(C)n1)C(=O)Nc1ccc(S(N)(=O)=O)cc1 (configuration not stated)	-10	1	-0.6	1.3	-2.5	?	nt
COc1ccc(NC(=O)Nc2nnc(Cc3ccc(OC)c(OC)c3)s2)cc1	6	-34	0.5	2.0	2.1	nt	-8
Cc1ccc(-n2nnnc2SCC(=O)N2Cc3ccccc3CC2C(=O)O)cc1 (configuration not stated)	0	1	-5.0	2.6	1.0	21%	7
Cc1noc(C)c1NC(=O)Nc1cccc2c1O[C@H](CN(C)S(=O)(=O)c1ccccc1)[C@@H](C)CN([C@H](C)CO)C2=O	-4	nt	nt	nt	1.5	3%	nt
COCCCNC(=O)CCc1ccc(S(=O)(=O)Nc2ccc(C)cc2)cc1	-32	0	-3.4	-4.8	5.1	7%	-3
Cc1ccc(-c2nnn(CC(=O)N(c3ccccc3)C(C(=O)NCC3CCCO3)c3ccc(F)cc3)n2)o1 (configuration not stated)	-1	1	8.1	?	-2.1	16%	8
CC(C)(C)C(=O)Nc1sc(-c2ccccc2)cc1C(=O)O	-11	11	5.5	-0.2	-0.3	?	44
O=C(C[C@H]1C[C@H](C(=O)N2CCCCC2)[C@@]2(CCc3ccccc3)c3[nH]c4ccc(Cl)cc4c3CCN2C1=O)NCCN1CCOCC1	2	nt	nt	nt	-1.2	2%	nt
Cc1cccc(C2CC(c3ccc(Cl)cc3)Nc3nc(N)nn32)c1 (configuration not stated)	-3	18	-2.4	?	-3.0	1%	5
CCOc1ccc(S(=O)(=O)N2CCCCC2)cc1NC(=O)Cc1cccs1	-5	1	-8.0	-2.9	-2.1	nt	-5
CCOc1ccccc1NCc1nnc(-c2ccccc2)o1	-6	-13	5.1	4.0	1.4	nt	66
